PKD1 kinase inh – inhibitors of human PKD1 kinase, biochemical, fluorescence polarization. Serine/threonine-protein kinase D1 (Homo sapiens), Q15139. PKD1 kinase fluorescence polarization assay. inhibition, %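 (about 10 µM by stock and volumes)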. 200,000 tested, 0.056% active. AID 797, 2007;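 active = inhibition of 50% or more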;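 also: controls were vehicle for no effect and a reference inhibitor for full effect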
Insulin prom inh – inhibitors of insulin promoter-driven GFP, primary screen, imaging, TRM-6 cells (human fetal islet line), eGFP reporter, cell count | AID 1273, 2008 | reporter expression induced with tamoxifen | inhibition, % at 2 µM | 130,000 tested, 0.9% active;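 active = inhibition above the mean plus 3 SD, with well images judged a real hit on visual review, cut at about 60% in these data, passing the limit was not always enough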
GALR2 ag – GALR2 receptor agonists, primary screen, cell-based; activation, %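 (tested at 5 µM)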; AID 803, 2007; Galanin receptor type 2 (Homo sapiens), O43603; GALR2-expressing cells, agonist activation read-out; 140,000 tested, 0.48% active;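 active = above mean plus 3 SD of all compounds, about 5% in these data, not always enough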;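 also: 0% = vehicle buffer wells and 100% = reference agonist at full effect; tested in CHO reporter cells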
Target sequence (O43603 whole entry, looked up): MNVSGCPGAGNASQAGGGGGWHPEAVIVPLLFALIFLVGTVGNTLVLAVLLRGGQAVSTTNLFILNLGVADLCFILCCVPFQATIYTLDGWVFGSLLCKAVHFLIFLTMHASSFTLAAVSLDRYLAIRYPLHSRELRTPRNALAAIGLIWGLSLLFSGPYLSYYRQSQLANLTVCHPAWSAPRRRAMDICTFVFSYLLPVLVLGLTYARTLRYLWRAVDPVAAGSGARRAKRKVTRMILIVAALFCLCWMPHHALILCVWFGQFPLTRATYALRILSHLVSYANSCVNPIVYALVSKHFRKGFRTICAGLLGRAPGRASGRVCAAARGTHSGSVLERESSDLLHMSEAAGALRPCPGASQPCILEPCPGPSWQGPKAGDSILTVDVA
HSV replic up – enhancers of HSV replication in host cells, fold increase, host cell viability; AID 1956, 2009; maximum fold increase; HSV replication augmentation in cells; 220,000 tested, 0.005% active;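 active = peak rise of 1.5-fold or more in the series; tested in PC3 cells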;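 also: first round at 10 µM; read as green reporter fluorescence; hits show the peak of a series up to 25 µM; 1 = signal of infected wells without compound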
RGS16-Gao – modulators of RGS16 binding to Galphao, primary screen, biochemical, human proteins, multiplexed bead flow cytometry | Regulator of G-protein signaling 16 (Homo sapiens) + Guanine nucleotide-binding protein … | AID 1441, 2008 | bead-based flow cytometry RGS16-Galphao binding, fluorescence; actives lie on both sides | 220,000 tested, 0.38% active | binding response (% of control), % at 10 µM;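 active = below 25% or above 175%, edge rows of some plates excepted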;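 also: Galphao activated by GDP with aluminum fluoride before binding; 100% = wells without compound and 0% = beads without RGS; some results beyond the cut were filed as inactive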
Target sequence (O15492 whole entry, looked up): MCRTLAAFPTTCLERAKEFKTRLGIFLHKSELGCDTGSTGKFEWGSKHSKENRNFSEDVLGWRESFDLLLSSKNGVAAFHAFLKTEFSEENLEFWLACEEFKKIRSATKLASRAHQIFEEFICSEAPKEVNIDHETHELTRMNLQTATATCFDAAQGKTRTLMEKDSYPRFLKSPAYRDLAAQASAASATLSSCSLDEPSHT
Target sequence (P09471 whole entry, looked up): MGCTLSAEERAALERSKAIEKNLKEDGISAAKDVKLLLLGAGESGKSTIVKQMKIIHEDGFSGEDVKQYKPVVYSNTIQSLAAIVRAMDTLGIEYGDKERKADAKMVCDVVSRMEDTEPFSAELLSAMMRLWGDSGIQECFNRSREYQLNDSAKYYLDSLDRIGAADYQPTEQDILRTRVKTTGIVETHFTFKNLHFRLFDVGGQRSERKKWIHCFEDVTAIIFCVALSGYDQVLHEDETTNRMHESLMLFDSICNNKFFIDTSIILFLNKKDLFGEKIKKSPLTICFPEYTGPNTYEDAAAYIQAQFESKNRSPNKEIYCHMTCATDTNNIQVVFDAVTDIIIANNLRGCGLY
Insulin prom inh cell count – recorded beside Insulin prom inh, whose call it bears; normalized cell count, %; measured here: cell count, toxicity; reference of the scale not given here;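 cells exposed to compound for 48 h; stained nuclei by imaging scaled within each plate; lower means fewer cells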
HSV replic up primary fold – also measured in HSV replic up; calls as there; fold increase; compound at 10 µM; measured here: primary screen fold increase 10 uM; tested in PC3 cells;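 GFP signal in the first replicate; 1 = infected wells without compound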
An asterisk follows results filed as active; i = inactive; . = no result given.

SMILES	PKD1 kinase inh	Insulin prom inh	Insulin prom inh cell count	GALR2 ag	HSV replic up	HSV replic up primary fold	RGS16-Gao
NS(=O)(=O)c1ccc(CCNC(=S)NC2CCCC2)cc1	3	.	.	.	i	1	99
O=C(Nc1ccc(S(=O)(=O)N2CCOCC2)cc1)c1ccc(CN2CCc3ccccc3C2)cc1	1	27	86	-2.0	i	0.96	104
COC(=O)c1cc(COC(=O)c2ccc3ccccc3n2)oc1C	-7	9	91	-2.1	i	0.93	101
CCOc1cccc(C(=O)NC(=S)Nc2ccc3c(c2)OCCO3)c1	-6	-14	73	.	i	0.8	85
COc1cc(/C=N/NC(=S)NCCN2CCOCC2)cc(OC)c1O	-7	15	137	-0.9	i	0.85	108
Cc1ccccc1N(Cc1ccccc1F)S(C)(=O)=O	0	-33	93	-1.5	i	1.1	98
CCOC(=O)c1cccc(NC(=O)C2(S(=O)(=O)c3ccc(Cl)cc3)CC2)c1	5	38	153	-0.7	i	0.84	102
CCCCC(C(=O)N/N=C/c1ccccn1)C(=O)N/N=C/c1ccccn1	.	.	.	.	i	1	76
CC[N+]1=CN(c2ccccc2)C(C)=CC1(C)C	8	-8	171	-0.5	i	1.1	109
Cc1csc2nc(CCNS(=O)(=O)c3cccs3)cn12	1	.	.	-4.2	i	0.99	101
O=S(=O)(c1ccc(Br)cc1)n1c(Cc2ccccc2)nc2ccccc21	1	.	.	-1.1	i	1	101
Cn1nc(C(F)(F)F)c2cc(C(=O)Nc3ccc(F)cc3F)sc21	0	27	104	-0.5	i	0.97	92
Cc1cc(NC(=O)c2cnn3c(C(F)(F)F)cc(-c4ccc(Br)cc4)nc23)no1	-9	13	61	-0.4	i	0.97	91
COc1ccc(S(=O)(=O)N2CCC(C(=O)NC3CC3)CC2)cc1Cl	16	50	101	-0.8	i	1	100
Cc1ccc(-n2c(C)c3c(C)nnc(C)c3c2C)cc1N	-3	.	.	.	i	0.92	97
O=C(CN1CCN(Cc2ccccc2)CC1)Nc1cccc(C(F)(F)F)c1	2	-30	93	-2.1	i	0.98	106
O=C(COC(=O)c1ccc(Cl)nc1)Nc1ccc(S(=O)(=O)N2CCCC2)cc1	-8	.	.	0.5	i	1	106
CCCCOc1ccc(C(=O)N/C(=C\c2cccc([N+](=O)[O-])c2)C(=O)OCCC)cc1	2	.	.	-2.3	.	.	106
N#Cc1ccc(-c2csc(NC(=O)/C=C/c3cccs3)n2)cc1	-5	4	108	-1.0	i	0.89	53
CN(CCN1CCc2ccccc2C1)Cc1nc(Cc2ccccc2F)no1	3	.	.	.	i	1.1	20*
CCOC(=O)c1c(C)c(C(=O)NCc2ccc3c(c2)OCO3)c(C)n1CC	-12	-122	99	-2.1	i	0.9	106
O=C(CC1CCCCC1)NC1CCCC1	-7	-14	89	-1.0	i	1	96
O=c1nc2s/c(=C\c3ccco3)c(=O)n2nc1Cc1ccc(F)cc1	-10	.	.	-1.4	i	1	93
CCOc1ccc(/C(O)=C2\C(=O)C(=O)N(CCN(C)C)C2c2cc(OC)ccc2OC)cc1Cl (configuration not stated)	0	33	88	-1.7	.	.	.
CCCCOc1ccccc1C(=O)NCCCC(=O)O	-2	29	136	-2.1	i	0.91	107
CCOC(=O)c1c(C)n(CC)c2ccc(OC(=O)c3ccc([N+](=O)[O-])cc3)cc12	0	-14	123	0.0	i	0.89	100
CN(C)C(=O)c1ccc(-c2cc(C(F)(F)F)n(C)n2)s1	.	.	.	.	i	1	105
Cc1nonc1-c1ccc2c(c1)OCO2	.	.	.	.	i	0.94	101
O=C(NCc1ccc(C(=O)O)cc1)OCc1ccccc1	4	.	.	.	i	1.1	98
O=C(Nc1nccs1)C1(S(=O)(=O)c2ccc(Cl)cc2)CC1	4	.	.	-0.6	i	1.1	122
COc1ccc(C(=O)Nc2nc(-c3ccc(S(=O)(=O)N4CCOCC4)cc3)cs2)cc1	-5	18	103	-2.7	i	0.48	100
O=S(=O)(c1ccc(Br)cc1)N1CCCN(Cc2ccccc2F)CC1	-7	-50	99	-0.6	i	1	102
CCOC(=O)C(c1ccccc1)N1CCN(c2ccc(OC)cc2)CC1 (configuration not stated)	1	-4	57	-0.2	i	0.93	104
O=C(Cn1nc(-c2ccc(Cl)cc2)ccc1=O)NCc1ccc2c(c1)OCO2	-1	.	.	-2.7	.	.	103
Cc1ccccc1-n1nnnc1SCc1cc(=O)n2ccsc2n1	-2	.	.	.	i	0.92	100
COc1ccccc1CNC(=O)C(CC(C)C)NC(=O)C1CCC(C)CC1 (configuration not stated)	-8	3	79	-2.4	i	1.1	104
O=C(Cn1cnc2ccccc21)Nc1ccc(F)c(F)c1	0	29	117	.	i	0.92	98
O=C(NC1CCCC1)C(c1ccncc1)N(CCCN1CCOCC1)C(=O)c1ccc(-c2ccccc2)[nH]1 (configuration not stated)	-5	33	111	.	i	0.92	123
CCN(CC)C(=O)CSc1nnc(-c2ccco2)o1	-8	-500	65	-1.3	i	1	94
Cc1cc(NC(=O)c2ccccc2-c2ccccc2C(=O)O)no1	-9	64*	75*	-1.9	i	1	97
COc1cc2c(cc1OC)CN(c1ccc(-c3ccccc3OC)nn1)CC2	-4	.	.	-1.5	i	0.84	106
COc1ccc(CNCC(=O)Nc2ccccc2-n2cccc2)cc1	-5	.	.	.	i	0.78	102
CCOP(=O)(OCC)/C(=N/OC(=O)c1ccc(Cl)cc1Cl)C(N)=O	.	.	.	.	i	0.97	106
CCOc1ccc(-c2nc(N)ncc2-c2ccccc2OC)c(O)c1	.	.	.	.	i	1.2	105
Cc1nc2c(C)[n+](CC(=O)c3ccccc3)ccc2n1C	.	.	.	.	i	0.91	101
O=C(N/N=C/c1ccc[nH]1)c1ccccc1OCc1ccccc1Cl	-3	.	.	.	i	0.99	93
O=C(Nc1cccnc1)c1ccccc1NS(=O)(=O)c1ccc(F)cc1	0	.	.	.	i	0.85	107
Cc1ccc(C)c(CSc2nc3[nH]ncc3c(=O)[nH]2)c1	-11	-222	10	.	i	0.7	104
Cc1cc(N2CCN(C)CC2)nc2ccc(NC(=S)NC3CC3)cc12	5	.	.	.	i	0.93	102
O=C(NC1CCCCC1NC(=O)c1ccco1)c1ccco1 (configuration not stated)	0	28	56	-0.5	i	0.98	98

Three entries picked at random from those above, as already listed:
SMILES	PKD1 kinase inh	Insulin prom inh	Insulin prom inh cell count	GALR2 ag	HSV replic up	HSV replic up primary fold	RGS16-Gao
O=C(Nc1cccnc1)c1ccccc1NS(=O)(=O)c1ccc(F)cc1	0	.	.	.	i	0.85	107
COc1cc2c(cc1OC)CN(c1ccc(-c3ccccc3OC)nn1)CC2	-4	.	.	-1.5	i	0.84	106
Cc1ccc(C)c(CSc2nc3[nH]ncc3c(=O)[nH]2)c1	-11	-222	10	.	i	0.7	104

An excerpt taken from the entries so far:
SMILES	PKD1 kinase inh	Insulin prom inh	Insulin prom inh cell count	GALR2 ag	HSV replic up	HSV replic up primary fold	RGS16-Gao
CCOP(=O)(OCC)/C(=N/OC(=O)c1ccc(Cl)cc1Cl)C(N)=O	.	.	.	.	i	0.97	106
CCOc1ccc(-c2nc(N)ncc2-c2ccccc2OC)c(O)c1	.	.	.	.	i	1.2	105
Cc1nc2c(C)[n+](CC(=O)c3ccccc3)ccc2n1C	.	.	.	.	i	0.91	101

Next compounds:
SMILES	PKD1 kinase inh	Insulin prom inh	Insulin prom inh cell count	GALR2 ag	HSV replic up	HSV replic up primary fold	RGS16-Gao
COC(=O)[C@@H](NC(=O)Nc1cccc(OC)c1)C(C)C	-4	57	49	-2.5	i	0.95	100
O=C(Cn1ccc(C(F)(F)F)n1)Nc1ccc(S(=O)(=O)NCc2ccco2)cc1	3	.	.	1.2	i	0.93	95
CCc1nnc(NC(=O)CN2CCOCC2)s1	-13	-45	121	-0.2	i	0.98	105
COc1ccccc1NC(=O)c1ccc(NC(=O)COC(=O)C2CCCCC2)cc1	4	.	.	0.1	i	1.1	103
Cc1cc(=O)[nH]c(SCC(=O)N2CCCCCC2)n1	-11	.	.	-1.1	i	0.96	87
CS(=O)(=O)c1ccc2c(c1)SC1=NC(=O)/C(=C/c3ccco3)C(=N)N12	6	-4	107	-2.2	i	1.2	107
Cc1onc(-c2ccccc2)c1C(=O)n1cc(Br)cn1	-7	-19	171	-1.8	i	0.86	105
CC(C)c1ccc(NC(=O)N(CCc2nc3ccccc3[nH]2)C2CCCC2)cc1	6	43	73	-0.2	i	0.77	108
COc1ccc(CCNC(=O)c2ccc(CS(=O)(=O)c3ccc(C)cc3)o2)cc1OC	-4	15	79	-1.6	i	1	103
CCc1ccc(Oc2coc3cc(OCC(=O)Nc4cc(C)ccc4C)ccc3c2=O)cc1	-4	-41	42	0.8	i	0.98	101
CCOC(=O)N1CCN(C(=O)c2ccc3c(=O)n(CCOC)c(=O)[nH]c3c2)CC1	-4	.	.	-2.6	.	.	146
Cc1nnc(SCc2ccc(Cl)c(Cl)c2)s1	2	.	.	.	i	1.1	96
CC(C)(C)c1nnc(N/N=C/c2ccc(O)cc2)n(N)c1=O	-4	-19	117	-1.4	i	0.8	106
COc1ccc(NS(=O)(=O)c2cn(C)cn2)cc1	.	.	.	.	i	1.1	103
CC(C)(C)c1cc(C(=O)NCC(=O)OCC(=O)c2cccc([N+](=O)[O-])c2)cc(C(C)(C)C)c1	0	-4	71	-0.9	i	1	75
O=C(C1=C(O)C(=O)N(c2ncccn2)C1c1ccc(Cl)c(Cl)c1)c1ccco1 (configuration not stated)	2	0	126	-1.3	i	1.1	150
CCCn1c2c(c(=N)c3c1CCC3)CCCC2	-1	17	93	-1.1	i	1	113
Cc1ccc(CN2CC(C(=O)Nc3cc(S(C)(=O)=O)ccc3Cl)CC2=O)cc1 (configuration not stated)	-5	-14	75	0.0	i	1	104
CC12CCC(C(=O)N3CCN(c4ccccc4)CC3)(CC1=O)C2(C)C (configuration not stated)	-19	.	.	-2.9	i	1	81
Cc1oc2c(CN3CCCC3)c(O)ccc2c(=O)c1-c1ccccc1	-2	10	132	-2.5	i	0.93	102
Cc1oc2c(c1C(=O)c1ccc(Cl)cc1)C(=O)C(=O)c1ccccc1-2	-3	13	94	-1.5	.	.	97
CC1CCN(C(=O)COc2ccc(Nc3ccccc3)cc2)CC1	-5	.	.	.	i	0.81	96
CCOC(=O)c1cccc(NC(=O)CCOc2ccccc2)c1	0	-79	89	.	i	0.99	105
COc1ccccc1CNC(=O)COc1ccccc1OC	-4	-22	166	-1.5	i	0.97	86
Oc1ccc(N=Nc2cccc(Cl)c2)cc1C=Nc1ccc(N2CCOCC2)cc1	3	.	.	-0.8	i	1.1	92
COC(=O)c1ccc(COc2ccc(NC(C)=O)cc2)o1	.	.	.	.	i	0.96	88
CCOC(=O)c1cnc(C(F)(F)F)nc1Oc1ccccc1	.	.	.	.	i	0.99	98
CC1CN(c2ccc(NS(=O)(=O)c3ccccc3)cc2C(=O)O)CC(C)O1 (configuration not stated)	.	.	.	.	i	0.89	101
CN(C)S(=O)(=O)c1cccc(NC(=O)COc2nc3ccccc3nc2N2CCOCC2)c1	2	-33	97	0.6	i	0.95	97
COc1ccc(NC(=S)N/N=C/c2cccn2Cc2ccc(F)cc2)cc1	2	.	.	.	i	1.1	100
O=C(Cc1cccs1)Nc1ccc(N2CCOCC2)cc1	-3	-114	106	-0.9	i	1	103
COc1ccc([N+](=O)[O-])cc1NC(=O)CCN1CCN(C)CC1	2	-40	89	.	i	0.98	98
Nc1ccccc1N=c1ssnc1Cl	1	36	94	.	i	1	78
O=C(c1scc2c1CCCC2)N1CCOCC1	10	-21	55	-2.0	i	0.99	105
CC(=O)OC1COC(N2CCc3cc([N+](=O)[O-])ccc32)C(OC(C)=O)C1OC(C)=O (configuration not stated)	-2	18	125	-2.4	i	0.99	102
Cc1cc(C)c(NC(=O)c2ccccc2C(=O)c2ccccc2)c(C)c1	-2	-65	118	.	i	1.1	105
CCOC(=O)Cn1nc(C)c(-c2ccccc2)c1N	-8	-27	104	-2.4	i	0.74	108
COc1cc(/C=N/NC(=O)c2cc(-c3c(C)nn(-c4ccccc4)c3C)n[nH]2)ccc1O	-4	.	.	.	i	0.7	101
CC(=O)Nc1ccc(Oc2nc(-c3ccccn3)nc3ccccc23)cc1	.	.	.	.	i	0.86	95
COc1ccccc1NC(=O)Cn1c(=O)n(-c2ccccc2)c(=O)c2oc3ccccc3c21	8	-46	100	-1.4	i	0.87	59
